From PubChem BioAssay
RecA splice inh = Mtb RecA intein splicing inhibitors, primary screen, biochemical, fluorescence, HTS. Protein RecA (Mycobacterium tuberculosis (strain ATCC 25618 / H37Rv)), P9WHJ3. cell-free RecA intein splicing. 290,000 compounds, 0.75% hits. AID 2221, 2009. inhibition, %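 (about 9 µM by stock and volumes)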; in the data active means inhibition above about 30%; inconclusive means no clear call, values can overlap the other calls;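 further: 0% = vehicle wells and 100% = reference inhibitor control wells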
Target sequence (P9WHJ3 whole entry, looked up, canonical isoform): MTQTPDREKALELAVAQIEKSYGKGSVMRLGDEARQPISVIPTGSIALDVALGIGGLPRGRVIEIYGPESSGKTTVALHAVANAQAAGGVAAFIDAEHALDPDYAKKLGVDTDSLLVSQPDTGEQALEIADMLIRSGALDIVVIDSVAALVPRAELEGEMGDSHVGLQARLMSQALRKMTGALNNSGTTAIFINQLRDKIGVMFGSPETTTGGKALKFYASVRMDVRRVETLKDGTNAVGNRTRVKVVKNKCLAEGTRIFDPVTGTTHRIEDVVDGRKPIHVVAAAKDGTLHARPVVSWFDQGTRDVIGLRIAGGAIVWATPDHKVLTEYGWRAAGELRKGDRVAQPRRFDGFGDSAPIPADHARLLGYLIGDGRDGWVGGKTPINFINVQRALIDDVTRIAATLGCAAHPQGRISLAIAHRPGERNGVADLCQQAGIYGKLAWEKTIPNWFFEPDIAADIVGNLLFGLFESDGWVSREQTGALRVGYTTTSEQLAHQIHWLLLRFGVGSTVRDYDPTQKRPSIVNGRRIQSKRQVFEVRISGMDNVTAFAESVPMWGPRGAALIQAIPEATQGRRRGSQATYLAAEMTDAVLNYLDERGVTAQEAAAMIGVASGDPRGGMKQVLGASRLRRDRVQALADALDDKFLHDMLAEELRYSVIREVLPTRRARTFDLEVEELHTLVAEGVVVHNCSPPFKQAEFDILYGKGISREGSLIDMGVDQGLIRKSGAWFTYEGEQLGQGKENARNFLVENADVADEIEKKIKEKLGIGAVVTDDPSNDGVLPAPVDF
Mtb betalactam = beta-lactam sensitization of Mtb H37Rv, H37Rv; M. tuberculosis H37Rv growth with meropenem, percent inhibition; hits of this screen are not shown here; inhibition, % at 25 µM; 330,000 compounds, 0.27% hits; AID 434955, 2010;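 active means about 74% or more and at least 40 points above the plate without the antibiotic, then above 30% in a dose series; inconclusive means first-round hits that could not be retested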;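 further: growth measured after seven days incubation then overnight dye step; 0% = bacteria only wells and 100% = bacteria with antibiotic; twin plates without the antibiotic show which effects depend on it; some results filed as inactive read as strong as hits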
Mtb H37Rv = M. tuberculosis H37Rv growth inhibitors, H37Rv strain (AID 1626). 220,000 compounds, 0.95% hits. inhibition, % at 10 µM, or IC50 in µM where a hit was titrated. M. tuberculosis H37Rv growth inhibition; higher % means a stronger effect;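 active means confirmed in a dose series; inconclusive means inhibition above 80% but not taken into the dose series; inactive means below 80% or under 30% at every dose of the series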;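 further: bacteria incubated seven days before Alamar blue readout; 0% = bacteria only wells and 100% = bacteria with antibiotic wells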
Arbovirus anti = antivirals against arbovirus infection, primary screen, cell-based, full library, 10K replicate subset; arbovirus infection cell-based antiviral screen; inhibition, % at 10 µM; 200,000 compounds, 0.37% hits; AID 1251, 2008;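 active means inhibition from about 30%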;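 further: bluetongue infection of BSR cells; cell survival read as ATP light after 72 h; 0% = infected wells without compound and 100% = uninfected wells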
YopH inh = YopH tyrosine phosphatase inhibitors, primary screen, biochemical, fluorescence Ex485/Em525; YopH tyrosine phosphatase [Yersinia enterocolitica]; inhibition, %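 (about 10 µM by stock and volumes)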; 140,000 compounds, 0.16% hits;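 active means inhibition of 50% or more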;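 further: controls were vehicle for no effect and minimum signal wells for full effect; inactives centre near -20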
Arbovirus anti repeat = further read-out of Arbovirus anti, marked with its call; inhibition, %; measured here: 10K subset replicate screen; many hits read low in the repeat;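 first of two repeat runs on a subset; 0% = infected and 100% = uninfected wells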
Numbers without * were called inactive; ? = inconclusive; / = not tested or not shown. Only part of the results is shown; the hit share may differ from the screen's.

SMILES	RecA splice inh	Mtb betalactam	Mtb H37Rv	Arbovirus anti	YopH inh	others
COc1ccc(C(=O)Nc2ccc(Oc3nc(C)nc4sc(-c5ccccc5)cc34)cc2)cc1OC	-7.5	13	6%	-29	-8
O=C(C(=O)N1CCOCC1)c1cn(Cc2ccccc2)c2ccccc12	4.7	-3	3%	-6	/
Cc1ccc(NC(=O)COC(=O)C(NS(=O)(=O)c2ccc(Cl)cc2)C(C)O)cc1 (stereo not drawn)	-5.6	2	5%	2	7
CCC(=O)Nc1cccc(C2=NOC3(C2)C[C@@H](C(N)=O)N(C(=O)c2ccc(OC)cc2)C3)c1 (stereo partly drawn)	0.5	-8	9%	/	/
COCc1cc(C)nc(N2CCc3ccccc32)c1C#N	2.1	11	2%	-5	-18
C=CCOc1ccc(C(=O)c2ccccc2)c(OCC(=O)NC2(C#N)CCCC2)c1	13	5	/	/	/
CCCn1c(=O)c2ccccc2n2c(Sc3nnnn3-c3ccccc3)nnc12	2.2	-4	-13%	1	-47
CCN(CC)c1cc(Cl)c2nonc2c1N	2.6	0	-9%	/	/
O=C1c2oc3ccccc3c(=O)c2C(c2cccnc2)N1CCCN1CCOCC1 (stereo not drawn)	-0.5	-7	-2%	0	-36
CCOc1ccc(NC(=S)NNC(=O)CC(C)O)cc1 (stereo not drawn)	0.9	6	-1%	1	/
CC1CC(=O)Nc2ccccc2N1C(=O)CN1CCN(C=O)CC1 (stereo not drawn)	0.4	-2	3%	9	/
COc1cc2[nH]c(=O)n(CCC(=O)N3CCc4ccccc4C3)c(=O)c2cc1OC	3.9	3	-8%	1	-57
CCOc1ccc(NC(=O)NC(C)c2ccc3c(c2)OCO3)cc1 (stereo not drawn)	-4.3	-13	/	/	/
COc1ccc(OC)c(/C=N/NC(=O)CSc2nnc(C)n2-c2ccccc2)c1	0.1	-3	2%	0	-26
N#Cc1ccc(-c2ccc(F)cc2)nc1SCC(=O)Nc1sc2c(c1C#N)CCC2	-2.6	-2	-16%	-5	-30
Cc1ccccc1OCC(O)Cn1c(Br)nc2c1c(=O)n(C)c(=O)n2C (stereo not drawn)	-2.9	0	-1%	-18	-14
Cc1cc(=O)n(CCC(=O)O)c2ccccc12	3.3	-15	-10%	4	-40
COc1nc(C)nc(NC(=O)NS(=O)(=O)c2ccccc2Cl)n1	-2.1	-10	-9%	/	/
CN1CCN(S(=O)(=O)CC2(C)C3CCC2(C)C(=O)C3Br)CC1 (stereo not drawn)	-0.5	-9	-9%	/	/
COc1ccc2oc(C(=O)Nc3ccc(N4CCOCC4)cc3)c(C)c2c1	0.7	-5	/	/	/
Cc1cc(C)n(-c2cccc(C(=O)O)c2)n1	-0.4	0	-2%	5	/
COc1cc(OC)c(-n2cc(-c3ccc(Cl)cc3)[nH]c2=O)cc1Cl	2.3	1	3%	-13	14
O=C(Nc1ccc(-c2nnc(-c3ccccc3)o2)cc1)C1CCCO1 (stereo not drawn)	-4.0	34	3%	-10	33
Clc1ccccc1N/N=C/c1ccc2c(c1)OCO2	4.1	78	51%	-30	-39
O=C(CSc1ccc(-c2ccccn2)nn1)c1ccc([N+](=O)[O-])cc1	1.0	0	9%	-20	/
COC(=O)CSc1nnnn1-c1cccc2ccccc12	0.2	0	-19%	-1	28
Cc1c(C2C(C#N)=C(N)N(c3cccc([N+](=O)[O-])c3)C3=C2C(=O)CCC3)cnn1C (stereo not drawn)	-4.0	2	2%	4	/
N#Cc1c(NC(=O)CCN2C(=O)c3ccccc3C2=O)oc(-c2ccccc2)c1-c1ccccc1	2.1	-10	-1%	2	-48
CCOc1ccc(-c2csc(NC(=O)c3cccc(N4C(=O)CCC4=O)c3)n2)cc1	2.0	2	-1%	/	/
C[N+]1(CCN2C(=O)C3CC=C(Cl)CC3C2=O)CCOCC1 (stereo not drawn)	-2.3	3	-1%	-1	-23
O=c1c2ccccc2nc(CNCC2CCCO2)n1-c1ccc(F)cc1 (stereo not drawn)	0.7	2	-8%	3	/
COC(=O)CCCC(=O)NCC1(N(C)Cc2ccccc2)Cc2ccccc2C1	1.6	-5	/	/	/
CCS(=O)(=O)NCc1csc(C)n1	1.9	-1	-5%	-4	-21
O=C(N/N=C/c1ccncc1)c1ccc(COc2cccc3cccnc23)cc1	3.1	-1	2%	-13	/
CCCC(=O)Nc1ccccc1NC(=O)c1ccc(OC)cc1	-2.4	-4	3%	-4	/
O=C(c1ccc(F)cc1)N1CCN(C2CCC(c3ccccc3)CC2)CC1 (stereo not drawn)	/	-7	6%	-4	/
CC(C(=O)NCC1CCCCC1)N(C)Cc1ccc(Cl)cc1 (stereo not drawn)	6.0	6	4%	0	/
COc1ccccc1NC(=O)CN(c1ccc(C23CC4CC(CC(C4)C2)C3)cc1)S(C)(=O)=O	2.9	-3	11%	-11	-23
COCCNC(=O)c1ccc2c(c1)nc(C)n2-c1cc(OC)c(OC)c(OC)c1	-0.3	5	-10%	8	-29
O=C(O)c1cc(S(=O)(=O)N2CCCc3ccccc32)ccc1Cl	0.7	2	/	/	/
CC1=C(C)C(=O)OC(C(C)C2CCC3C4CC=C5CC(OC6OC(COC7OC(CO)C(O)C(O)C7O)C(O)C(O)C6O)CC(O)C5(C)C4CCC23C)C1 (stereo not drawn)	0.6	-8	-15%	13	/
O=C(O)/C=C/C(=O)NNC(=O)c1ccccc1Br	0.0	-3	-1%	4	-36
CC1(C)CC(=O)C(C=NCCN2CCN(C3CC(=O)N(c4ccc(F)cc4)C3=O)CC2)=C(O)C1 (stereo not drawn)	-4.2	3	4%	4	/
CC1Cc2cc(S(=O)(=O)NCCc3ccccc3)ccc2N1C(=O)C1CC1 (stereo not drawn)	0.0	-4	/	/	/
COc1cccc(NC(=O)CN2C(=O)C3(OCCCO3)c3ccccc32)c1	-1.0	12	-1%	0	-31
COc1cc(NC(=O)CN(C)CCOc2ccccc2)c(C)cc1[N+](=O)[O-]	0.9	3	/	/	/
COc1ccc(S(=O)(=O)NCCN2CCOCC2)cc1Br	2.3	-6	/	/	/
CCOC(=O)C1=NN(c2ccc([N+](=O)[O-])cc2)CC1C(=O)OC (stereo not drawn)	0.2	-4	-10%	-7	-22
Cc1ccc(C(=O)CSc2cnc3ccccc3n2)cc1C	10	-1	7%	7	-9
Cc1ccc(NC2CCCN(C(=O)Cc3nonc3C)C2)cc1C (stereo not drawn)	-1.6	-6	/	/	/

Continued, starting with the last 5 of the part before.
SMILES	RecA splice inh	Mtb betalactam	Mtb H37Rv	Arbovirus anti	YopH inh	others
COc1cc(NC(=O)CN(C)CCOc2ccccc2)c(C)cc1[N+](=O)[O-]	0.9	3	/	/	/
COc1ccc(S(=O)(=O)NCCN2CCOCC2)cc1Br	2.3	-6	/	/	/
CCOC(=O)C1=NN(c2ccc([N+](=O)[O-])cc2)CC1C(=O)OC (stereo not drawn)	0.2	-4	-10%	-7	-22
Cc1ccc(C(=O)CSc2cnc3ccccc3n2)cc1C	10	-1	7%	7	-9
Cc1ccc(NC2CCCN(C(=O)Cc3nonc3C)C2)cc1C (stereo not drawn)	-1.6	-6	/	/	/
O=C(Nc1ccc(C(=O)O)cc1)/C(=C\c1ccco1)NC(=O)c1ccco1	-1.0	-4	/	/	/
CC(C)(C)OC(=O)N/N=C/c1c[nH]c2ccccc12	1.2	2	4%	2	-16
Cc1c(N=c2scc(-c3ccccc3)n2CCO)c(=O)n(-c2ccccc2)n1C	/	-10	1%	4	/
CN(c1ccc(C(=O)NCc2cccs2)cc1)S(=O)(=O)c1ccccc1	1.7	-5	-3%	-7	/
COc1cc(NC(=O)C(F)(F)F)cc(OC)c1	-1.2	-10	74%	7	-11	Arbovirus anti repeat=-1
C=CCn1c(=O)/c(=C\c2ccsc2)s/c1=C(/C#N)C(=O)NCCN1CCOCC1	-1.8	2	5%	0	-28
C/C=C\C=C\C(=O)Nc1cccc(C2=NOC3(C2)C[C@H](C(N)=O)N(C(=O)c2ccccc2C(=O)c2ccccc2)C3)c1 (stereo partly drawn)	4.3	60	-4%	/	/
Cc1ccc2nc(/C(C#N)=C\c3cc(O)ccc3[N+](=O)[O-])[nH]c2c1	-1.6	-1	-7%	-1	/
O=C(NCc1ccncc1)Nc1ccccc1	-0.3	-5	-5%	2	-10
Cc1ccc(SCCC(=O)Nc2ccc(OCc3ccccc3)cc2)cc1	2.1	95	?	-3	-15
CC1CC(c2ccccc2)NS(=O)(=O)O1 (stereo not drawn)	-1.3	8	/	/	/
O=C1/C(=C/c2ccccc2[N+](=O)[O-])COc2ccccc21	23	100	2.9µM*	-21	/
COc1ccc(CCN2C(=O)c3[nH]nc(-c4ccccc4O)c3C2c2cccc(Cl)c2)cc1 (stereo not drawn)	8.1	1	12%	-32	-93
CCC(CC)C(=O)N=C1SC2CS(=O)(=O)CC2N1CCc1ccc(OC)cc1 (stereo not drawn)	-0.7	-5	-1%	-9	-11
COc1ccc(CCNC(=O)c2nnn(CC(=O)Nc3c(C)cc(C)cc3C)c2N)cc1OC	2.5	-1	/	/	/
c1ccc(-c2cc(-c3nnco3)c3ccccc3n2)nc1	-0.7	-8	5%	-3	/
O=S(=O)(c1ccc(F)cc1)N1CCN(c2ncnc3c2cnn3-c2ccccc2)CC1	-1.6	-9	5%	5	-34
Cc1ccc(NC(=O)NC2CCCN2S(=O)(=O)c2ccc(Cl)cc2)cc1 (stereo not drawn)	3.0	-3	8%	-6	-17
Cc1ccc(N2C(=O)CSC2c2cccnc2)c(Cl)c1 (stereo not drawn)	1.5	-3	7%	/	/
CCOC(=O)C1(C(F)(F)F)N=C(c2cccnc2)OC(N2CCOCC2)=N1 (stereo not drawn)	-0.2	12	-1%	2	-41
Cc1ccc(N(C(=O)CNC(=O)c2ccco2)C(C(=O)NCC2CCCO2)c2ccccc2)c(C)c1 (stereo not drawn)	-1.1	-4	/	/	/
Cc1noc(C)c1COc1ccc(C(=O)OCC(=O)NC23CC4CC(CC(C4)C2)C3)cc1	-2.0	99	12%	-4	-30
CC(=O)Nc1ccc(C(=O)CN2C(=O)CSC2=O)cc1	-1.0	-2	/	/	/
CC(=O)N(CCC(Cc1ccccc1)c1ccc2c(c1)OCO2)Cc1ccccc1F (stereo not drawn)	36*	-3	/	-16	-24
CC(C)(C)c1nc2scc(-c3ccc(Br)cc3)c2c(=O)o1	-1.9	8	4%	18	/
Cc1ccc(CSC2=NCCN2S(=O)(=O)c2ccc(F)cc2)cc1	1.2	?	/	/	/
COCCCN(C(=O)Nc1cccc(Cl)c1)C(C)c1ccccn1 (stereo not drawn)	6.0	-6	-2%	3	21
Cc1ccc(C(=O)N2CCCCC2)cc1S(=O)(=O)N1CCCCCC1	2.8	2	/	/	/
CC(Sc1nnc(-c2ccco2)n1C)C(=O)Nc1nccs1 (stereo not drawn)	1.6	-7	/	/	/
O=[N+]([O-])c1ccc2[nH]cc(S(=O)(=O)N3CCN(c4cccc(Cl)c4)CC3)c2c1	0.6	67	/	/	/

Looked up by structure from above, five records:
SMILES	RecA splice inh	Mtb betalactam	Mtb H37Rv	Arbovirus anti	YopH inh	others
Cc1ccc(NC(=O)NC2CCCN2S(=O)(=O)c2ccc(Cl)cc2)cc1 (stereo not drawn)	3.0	-3	8%	-6	-17
CCOC(=O)C1=NN(c2ccc([N+](=O)[O-])cc2)CC1C(=O)OC (stereo not drawn)	0.2	-4	-10%	-7	-22
COCc1cc(C)nc(N2CCc3ccccc32)c1C#N	2.1	11	2%	-5	-18
Cc1ccc(N2C(=O)CSC2c2cccnc2)c(Cl)c1 (stereo not drawn)	1.5	-3	7%	/	/
O=S(=O)(c1ccc(F)cc1)N1CCN(c2ncnc3c2cnn3-c2ccccc2)CC1	-1.6	-9	5%	5	-34

(more compounds)
SMILES	RecA splice inh	Mtb betalactam	Mtb H37Rv	Arbovirus anti	YopH inh	others
COc1ccc(NC(=S)Nc2cc(C)[nH]n2)cc1Cl	0.4	54	?	/	/
Cn1nc(C(C)(C)C)cc1NC(=O)Nc1ccc(Cl)cc1	2.3	5	-6%	/	/
COc1cccc(/C=N/n2c(C3CCCCC3)n[nH]c2=S)c1O	-1.7	-1	/	/	/
CCOc1ccc(C2=C(C=C(C#N)C#N)C(c3ccccc3)c3ccccc3O2)cc1 (stereo not drawn)	6.1	?	14%	4	-12
CCCCC1=CC2=C(c3ccco3)C(=O)C(C)(OC(=O)c3ccc(OC)cc3)C(=O)C2=CN1Cc1ccccc1 (stereo not drawn)	5.6	4	7%	/	/
O=C(COC(=O)c1cc([N+](=O)[O-])ccc1NCc1ccccc1)NC1CCCCC1	-0.9	9	40%	-8	-31
